# Assay outcomes as filed in PubChem.
# Beta2AR agonist – activates human beta-2 adrenergic receptor causing internalization; P07550; Am2.2-beta2AR cells, FAP receptor internalization, flow cytometry; reference of the scale not given here; response, % (no concentration beside the values); 0.43% of 340,000 active; AID 504454;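 active = response above a set limit, near 3 SD of response in nonfluorescent compounds, cut at about 42% in these data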;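 note: stock transfer was 100 nL into about 11 µL; a reference agonist was the positive control; negative values mostly stem from fluorescent compounds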
# Target sequence (P07550 whole entry, looked up): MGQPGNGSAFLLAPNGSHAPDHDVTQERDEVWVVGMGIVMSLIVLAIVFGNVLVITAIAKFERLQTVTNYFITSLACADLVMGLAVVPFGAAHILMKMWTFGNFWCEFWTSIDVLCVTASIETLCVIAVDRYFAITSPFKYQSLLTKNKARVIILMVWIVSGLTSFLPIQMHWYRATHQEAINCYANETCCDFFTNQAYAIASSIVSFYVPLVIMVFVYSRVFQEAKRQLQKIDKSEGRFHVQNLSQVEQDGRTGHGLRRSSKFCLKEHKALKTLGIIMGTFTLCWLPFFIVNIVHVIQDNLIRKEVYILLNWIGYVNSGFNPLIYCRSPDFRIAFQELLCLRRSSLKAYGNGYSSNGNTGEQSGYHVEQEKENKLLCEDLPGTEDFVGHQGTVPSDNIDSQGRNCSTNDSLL
# HNF4A DNA FP – change in binding of human HNF4 alpha to DNA | P41235 | HNF4a-FITC DNA binding, fluorescence polarization, 1 h | activity change, % at 10 µM | 0.3% of 360,000 active; in the data active = activity change above about 30%, passing the limit was not always enough;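 note: controls were the assay level and a saturating level of protein; the project sought stronger binding though the title names inhibitors; some compounds called inactive have numbers as strong as hits; positive values seem to mean higher polarization but the record does not say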
# Target sequence (P41235 whole entry, looked up): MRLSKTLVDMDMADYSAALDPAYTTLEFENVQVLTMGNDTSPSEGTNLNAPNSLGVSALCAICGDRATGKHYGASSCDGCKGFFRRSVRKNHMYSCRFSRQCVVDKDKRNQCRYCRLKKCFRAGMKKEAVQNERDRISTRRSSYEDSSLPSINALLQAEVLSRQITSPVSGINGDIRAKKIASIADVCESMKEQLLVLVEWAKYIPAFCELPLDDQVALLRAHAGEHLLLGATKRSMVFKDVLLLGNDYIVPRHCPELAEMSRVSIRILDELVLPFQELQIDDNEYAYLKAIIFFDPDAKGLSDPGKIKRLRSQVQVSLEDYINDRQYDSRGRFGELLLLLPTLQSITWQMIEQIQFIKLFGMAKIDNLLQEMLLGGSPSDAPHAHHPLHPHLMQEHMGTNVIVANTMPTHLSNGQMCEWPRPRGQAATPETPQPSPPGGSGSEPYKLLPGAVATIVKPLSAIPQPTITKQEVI
# * hit, by the source's call. The list is partial; the hit share may differ from the screen's.
SMILES,Beta2AR agonist,HNF4A DNA FP
CC1CC(C)CN(C(=O)C(C)N2CCN(S(=O)(=O)c3ccc(C(F)(F)F)cc3)CC2)C1 (stereo unspecified),1.3,-1.2
O=C(Nc1ccc(C(=O)N2CCCCC2)cc1)C1CCC1,-8.6,1.1
COCCCNC(=O)C[C@H]1C[C@H](C(=O)N2CCCCC2)[C@@]2(CCc3ccccc3)c3[nH]c4ccc(Cl)cc4c3CCN2C1=O,1.7,-1.6
Nc1ccc(C(=O)NN2C(=O)[C@H](Cl)C2c2ccc(Cl)cc2)cc1 (stereo partly specified),6.8,1.6
CC(=O)Nc1cccc(C(=O)N2CCN(S(=O)(=O)c3ccc(C4CCCCC4)cc3)CC2)c1,7.7,-0.2
COc1ccc2c(c1)OC[C@H]1[C@H]2N2C(=O)CN(Cc3ccccc3)C(=O)[C@@]2(C)[C@H]1c1ccccc1,-6.9,-23.9
Cc1sc2ccccc2c1CNC[C@H]1O[C@@H](n2cnc(C(N)=O)n2)[C@H](O)[C@@H]1O,-7.0,1.8
C[C@@H]1CN([C@H](C)CO)C(=O)c2cc(NC(=O)Nc3cccc4ccccc34)ccc2O[C@H]1CN(C)Cc1ccc(C(F)(F)F)cc1,9.4,1.2
CCN(C(=O)COC(=O)c1ccc2[nH]c(C)c(C)c2c1)c1c(N)n(Cc2ccccc2)c(=O)[nH]c1=O,-10.3,8.5
O=C1OCCN1C(=O)[C@H]1[C@H](c2ccc(F)cc2)C(c2ccccc2)=NN1c1ccc(Br)cc1,6.0,3.4
Cc1cc(Br)ccc1NC(=O)CN(C)C(=O)C1CCN(C(=O)c2ccc(Cl)cc2)CC1,1.9,-3.0
NC(=O)c1ncn([C@@H]2O[C@H](CN=C3NS(=O)(=O)c4ccccc43)[C@@H](O)[C@H]2O)n1,-3.5,-0.8
Cc1ccc(NC(=O)c2ncn(CCCNCCCN(C)C)n2)cc1C,-3.1,0.1
C=CC[C@H](CC(=O)N[C@H](CO)Cc1ccccc1)C(=O)N[C@H](COC(=O)[C@@H](CC=C)Cc1ccc(F)cc1)Cc1c[nH]c2ccccc12,6.1,1.8
NC(=S)NN=C1CCCCCCCC1,-16.7,-0.9
COC(=O)CSc1nc(SC)nc2c1sc1nc(-c3ccco3)c3c(c12)CC(C)(C)OC3,-5.8,1.8
CN1N=C(C(=O)N=c2sc3ccccc3n2C)CCC1=O,-25.0,-5.7
CCOC(=O)c1ccccc1NC(=O)C1CC(=O)N(C2CCCC2)C1 (stereo unspecified),0.8,-2.0
CN(C(=O)c1cccc(NC(=O)Cc2ccc(NC(=O)C3CCCN(C(=O)C4CC4)C3)cc2)c1)C1CCC1 (stereo unspecified),-17.9,0.4
Cc1ccc2nc(-c3ccc(NC(=S)NCC(C)(C)CN(C)C)cc3)sc2c1,10.2,2.7
CC(C)N(C(=O)[C@H]1CC(CC(=O)NCC23CC4CC(CC(C4)C2)C3)C(=O)N2CCc3c([nH]c4ccccc34)[C@]12C)C(C)C (stereo partly specified),-5.3,3.1
COc1cccc(NC(=O)CN(C)CC(=O)Nc2ccc(C)c(S(=O)(=O)N3CCOCC3)c2)c1,2.8,2.9
O=C(Cc1cccc(NC(=O)C2CCCN(C(=O)CCc3ccccc3)C2)c1)Nc1cccc(C(=O)N2CCCCC2)c1 (stereo unspecified),3.2,-1.5
N#CCC(=O)Nc1ccc(C(=O)OCC(=O)NC2CCCCCC2)cc1,5.4,5.5
Cc1cc(C)n(-c2nc(SCCN3CCOCC3)c3c4c(sc3n2)CCCC4)n1,0.8,1.0
NC(=O)c1ncn([C@@H]2O[C@H](CNCc3cccn3-c3ccncc3)[C@@H](O)[C@H]2O)n1,1.1,-4.5
O=C(CC(=O)OCc1ccccc1)OCc1ccccc1,20.7,1.5
CCCCn1c(N)c(N(CC(C)C)C(=O)CN2C(=O)NC3(CCC(C(C)(C)CC)CC3)C2=O)c(=O)[nH]c1=O (stereo unspecified),-6.1,-3.6
N#CCCN(C(=O)COC(=O)c1cccc(S(=O)(=O)N2CCCCCC2)c1)c1ccc(F)cc1,-0.7,-4.9
O=C1c2ccccc2C(=O)N1CCCn1c2ccc(Cl)cc2c2nc3ccccc3nc21,-1.6,3.5
O=C(COc1ccc(F)cc1Cl)Nc1cccc(S(=O)(=O)N2CCCC2)c1,4.3,-3.2
N#Cc1ccccc1NC(=O)CN1C(=O)NC(Cc2c[nH]c3ccccc23)C1=O (stereo unspecified),-14.8,10.2
CN(C)c1ccc(Cc2ccc(N(C)C)cc2)cc1,22.1,-3.3
O=C(COC(=O)c1cccc(Cl)c1)Nc1cc(S(=O)(=O)N2CCOCC2)ccc1N1CCOCC1,-5.5,0.2
COc1ccc(OC)c(Nc2nc(=O)c3cccnc3s2)c1,7.6,-3.5
CCN(C(=O)COC(=O)C(c1ccccc1)c1ccccc1)c1c(N)n(Cc2ccccc2)c(=O)[nH]c1=O,0.7,7.5
CN(c1ccccc1)S(=O)(=O)c1cc(C(=O)OCC(=O)c2c(N)n(C)c(=O)n(C)c2=O)ccc1Cl,-1.7,1.2
COc1ccc(CC(=O)N(C)Cc2ccc(OC(F)F)cc2)cc1S(=O)(=O)N1CCOCC1,2.1,1.4
COCCCNC(=O)CC1C[C@H](C(=O)N(C(C)C)C(C)C)[C@@]2(C)c3[nH]c4ccc(OC)cc4c3CCN2C1=O (stereo partly specified),-5.5,0.5
Nc1cc([N+](=O)[O-])ccc1OCc1ccccc1,-12.6,1.5
CSCCC(NC(=O)c1cc(S(=O)(=O)N2CCOCC2)ccc1C)c1nc2ccccc2[nH]1 (stereo unspecified),1.5,0.1
O=C1[C@H](Cc2ccccc2)NCC=CC[C@@H](c2ccc(Cl)cc2)N1Cc1ccccc1,6.6,-0.7
CC(=Nc1ccccc1)C1=C(O)C(Cc2ccccc2)NC1=O (stereo unspecified),16.3,4.3
C=CS(=O)(=O)N(Cc1ccccc1Br)[C@H](CO)CC(C)C,9.7,-4.2
O=c1ccc(=O)n(CCc2ccccn2)[nH]1,-2.7,1.9

# Some of these compounds in order of formula weight, lowest first.
SMILES,Beta2AR agonist,HNF4A DNA FP
CN(C)c1ccc(Cc2ccc(N(C)C)cc2)cc1,22.1,-3.3
CC(=Nc1ccccc1)C1=C(O)C(Cc2ccccc2)NC1=O (stereo unspecified),16.3,4.3
C=CS(=O)(=O)N(Cc1ccccc1Br)[C@H](CO)CC(C)C,9.7,-4.2
N#Cc1ccccc1NC(=O)CN1C(=O)NC(Cc2c[nH]c3ccccc23)C1=O (stereo unspecified),-14.8,10.2
O=C(COc1ccc(F)cc1Cl)Nc1cccc(S(=O)(=O)N2CCCC2)c1,4.3,-3.2
O=C1[C@H](Cc2ccccc2)NCC=CC[C@@H](c2ccc(Cl)cc2)N1Cc1ccccc1,6.6,-0.7
COc1ccc(CC(=O)N(C)Cc2ccc(OC(F)F)cc2)cc1S(=O)(=O)N1CCOCC1,2.1,1.4
CSCCC(NC(=O)c1cc(S(=O)(=O)N2CCOCC2)ccc1C)c1nc2ccccc2[nH]1 (stereo unspecified),1.5,0.1
CCN(C(=O)COC(=O)C(c1ccccc1)c1ccccc1)c1c(N)n(Cc2ccccc2)c(=O)[nH]c1=O,0.7,7.5
CN(c1ccccc1)S(=O)(=O)c1cc(C(=O)OCC(=O)c2c(N)n(C)c(=O)n(C)c2=O)ccc1Cl,-1.7,1.2
O=C(COC(=O)c1cccc(Cl)c1)Nc1cc(S(=O)(=O)N2CCOCC2)ccc1N1CCOCC1,-5.5,0.2
COCCCNC(=O)CC1C[C@H](C(=O)N(C(C)C)C(C)C)[C@@]2(C)c3[nH]c4ccc(OC)cc4c3CCN2C1=O (stereo partly specified),-5.5,0.5

# More results follow.
SMILES,Beta2AR agonist,HNF4A DNA FP
Cc1cccc(C)c1NC(=O)COC(=O)c1c(C)nn(-c2ccccc2)c1C,0.1,-1.1
CCOc1cc(C)nc(N2CCC(C(=O)NCC3CCCO3)CC2)n1 (stereo unspecified),1.0,-0.4
COc1ccc(-n2c(SCC(=O)Nc3nccs3)nnc2-c2ccc(Cl)cc2)cc1,-1.4,-1.0
COc1ccc(C)cc1NC(=O)c1cc(C2CC2)nc2c1c(C)nn2C1CCS(=O)(=O)C1 (stereo unspecified),15.3,-2.0
CCc1nc(SCC(=O)N2CCc3ccccc32)c2oc3ccccc3c2n1,-4.5,2.3
O=C1CC[C@@H]2CC3(C[C@@H]4CCN1[C@H]24)Nc1cc(Cl)ccc1NC3=NC1CCCCC1 (stereo partly specified),-2.5,4.4
CC(OC(=O)C1CCN(S(=O)(=O)c2ccc(C(C)(C)C)cc2)CC1)C(=O)N(C)C1CCCCC1 (stereo unspecified),14.2,0.0
COC(=O)[C@@H](Cc1c[nH]c2ccccc12)NCc1ccc(B(O)O)cc1,-2.6,0.0
CCNC(=O)c1c(NC(=O)c2cc(-c3cc(C)cc(C)c3O)n[nH]2)sc2c1CCCC2,10.6,2.8
COc1ccccc1/C=C/C(=O)OCC(=O)NC1CC1,-2.1,-3.9
Cc1cc(=O)oc2c(O)c(O)ccc12,-4.7,0.5
CC(=O)O[C@H]1[C@H](O)[C@H](Oc2c(O)c(C)c3c4c2[C@@H](C)CC[C@@H]4[C@@H](C)C[C@H]3C=C(C)C)O[C@@H](C)[C@H]1O,-0.5,5.4
CCOc1ccccc1NC(=O)C1CCCN1S(=O)(=O)c1ccccc1C(F)(F)F (stereo unspecified),4.4,-0.2
CC(C(=O)Nc1ccc(F)cc1Cl)N1CCN(S(=O)(=O)c2cccs2)CC1 (stereo unspecified),-1.6,0.3
COc1cc(/C=C(\C(=O)O)c2ccc(S(=O)(=O)N3CCCC3)s2)ccc1OCCC(C)C,6.8,-10.7
CN(C)C(=O)CCc1ccc2c3c([nH]c2c1)[C@]1(CCc2ccccc2)[C@@H](C(=O)N2CCCCC2)C[C@H](CC(=O)NCc2cccc(C(F)(F)F)c2)C(=O)N1CC3,7.1,-0.8
Cc1ccccc1S(=O)(=O)N1C[C@H]2CON(C)[C@H]2C[C@H]1c1cccc(Oc2ccccc2)c1,10.3,1.0
O=C1[C@H](Cc2ccccc2)NCCCC[C@@H](c2ccc(Cl)cc2)N1Cc1ccc(Cl)cc1,14.9,-1.2
CCCCNC(=O)CN(Cc1ccco1)S(=O)(=O)c1ccc(C(C)=O)cc1,-7.9,1.1
O=C(Cc1ccccc1)N(c1ccccc1)c1ccccc1,2.2,0.2
c1ccc(-c2ncnc3ccccc23)cc1,-7.2,1.6
COc1ccc2c(CC(=O)OCC(=O)N(C)c3c(N)n(Cc4ccccc4)c(=O)[nH]c3=O)coc2c1,-6.3,2.6
CCCCCCC[C@@H](C/C=C/CCC(=O)N(C)C/C(=C/Cl)C/C(=C\C(=O)N1C[C@H](O)CC1=O)OC)OC,-0.2,-2.3
Cc1c(NS(=O)(=O)c2cccc(C(=O)OCC(=O)c3ccc(Cl)cc3)c2)c(=O)n(-c2ccccc2)n1C,10.8,4.8
COC(=O)[C@@H](Cc1ccccc1)NS(=O)(=O)N[C@H](Cc1ccccc1)C(=O)OC,4.5,0.2
C=CCn1c(SCCN2C(=O)c3ccccc3C2=O)nc2scc(-c3ccc(F)cc3)c2c1=O,-9.3,-0.1
COc1ccc(NS(=O)(=O)c2cc(NC(=O)C(CC(C)C)NC(N)=O)ccc2N2CCOCC2)cc1 (stereo unspecified),-1.3,2.9
O=C(Nc1ccccc1F)c1cc(S(=O)(=O)N2CCOCC2)ccc1N1CCOCC1,1.6,-2.8
CCOC(=O)c1c(C)cc(O)cc1O,-0.6,-2.6
CC(C)COc1cccc(C(=O)Nc2cc(S(=O)(=O)N3CCOCC3)ccc2N2CCCC2)c1,-10.2,2.5
COc1cccc(CN(C)C(=O)c2ccc(NC(=O)CC3SC(N4CCCCC4)=NC3=O)cc2)c1OC (stereo unspecified),0.5,1.1
CCN(CC)c1ccc(C(=C2C=CC(=[N+](CC)CC)C=C2)c2ccc(N(CC)CC)cc2)cc1,82.1*,1.0
O=C(CN1C(=O)NC2(CCCC2)C1=O)N1CCN(c2ccc(C(F)(F)F)cc2[N+](=O)[O-])CC1,-8.2,-1.4
Cc1cc(O)ccc1NC(=O)Cc1cccc2ccccc12,-6.3,-1.4
CC1(C)C[C@H]2C3=CCC4[C@@]5(C)CC[C@H](O)[C@](C)(CO)C5CC[C@@]4(C)[C@]3(C)CC[C@@]2(C)[C@H](O)[C@@H]1O (stereo partly specified),7.0,0.8
O=c1[nH]cnc2c1ncn2C1OC(CO)C(O)C1O (stereo unspecified),-3.2,-0.5
O=C(c1cc2cc3ccc(Cl)cc3nc2o1)N1CCN(Cc2ccc3c(c2)OCO3)CC1,-0.2,1.9
Cc1cc(CNCCN(C)C)c(C)n1-c1cc(S(=O)(=O)N2CCOCC2)ccc1N1CCCC1,22.1,2.3
CC(=NN(Cc1ccccc1)c1ccccc1)c1ccccc1,-8.7,-3.0
COc1ccc(CCN2CC(C(=O)OCC(=O)N(C)CC(=O)Nc3ccccc3Cl)CC2=O)cc1OC (stereo unspecified),6.5,-0.8
CNc1nc(N/N=C/c2cc([N+](=O)[O-])ccc2F)nc(Nc2ccccc2)n1,26.7,18.3
O=C(CCS(=O)(=O)c1ccc(Cl)cc1)Nc1cccc(S(=O)(=O)N2CCCCCC2)c1,-2.9,-1.0
CC[C@]12c3[nH]c4ccc(OC)cc4c3CCN1C(=O)C(CC(=O)NCc1ccc(OC)c(OC)c1)C[C@@H]2C(=O)N1CCN(C(=O)C2CC2)CC1 (stereo partly specified),1.5,2.7
C=CC(=O)Nc1cccc(Oc2ccnc(Nc3ccc(N4CCN(C)CC4)cc3)n2)c1,7.0,23.2
COc1ccc(CNC(=O)CN2C(=O)c3ccccc3S2(=O)=O)cc1,-6.7,-3.9
CCN(C(=O)COC(=O)c1c(NC(C)=O)sc(C)c1C)c1c(N)n(Cc2ccccc2)c(=O)[nH]c1=O,1.6,3.0
CN(C(=O)c1ccc(NC(=O)Cc2cccc(NC(=O)C3CCN(C(=O)C4CCCCC4)CC3)c2)cc1)C1CC1,-3.5,-3.4
